Bioassay records as filed in PubChem.
Mtb betalactam – beta-lactam sensitization of Mtb H37Rv, H37Rv; M. tuberculosis H37Rv growth with meropenem, percent inhibition; hits of this screen are not shown here; inhibition, % at 25 µM; 330,000 tested, 0.27% active;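 active means about 74% or more and at least 40 points above the plate without the antibiotic, then above 30% in a dose series; inconclusive means first-round hits that could not be retested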;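 further: growth measured after seven days incubation then overnight dye step; 0% = bacteria only wells and 100% = bacteria with antibiotic; twin plates without the antibiotic show which effects depend on it; some results filed as inactive read as strong as hits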
Arbovirus inh – antivirals against arbovirus infection, primary screen, cell-based, full library, 10K replicate subset; arbovirus infection cell-based antiviral screen; inhibition, % at 10 µM; 200,000 tested, 0.37% active;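 active means inhibition from about 30%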;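 further: bluetongue infection of BSR cells; cell survival read as ATP light after 72 h; 0% = infected wells without compound and 100% = uninfected wells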
RecA splice inh – Mtb RecA intein splicing inhibitors, primary screen, biochemical, fluorescence, HTS; inhibition, %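 (about 9 µM by stock and volumes)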; 290,000 tested, 0.75% active; cell-free RecA intein splicing; Protein RecA (Mycobacterium tuberculosis (strain ATCC 25618 / H37Rv)), P9WHJ3; in the data active means inhibition above about 30%; inconclusive means no clear call, values can overlap the other calls;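 further: 0% = vehicle wells and 100% = reference inhibitor control wells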
Target sequence (P9WHJ3 whole entry, looked up, canonical isoform): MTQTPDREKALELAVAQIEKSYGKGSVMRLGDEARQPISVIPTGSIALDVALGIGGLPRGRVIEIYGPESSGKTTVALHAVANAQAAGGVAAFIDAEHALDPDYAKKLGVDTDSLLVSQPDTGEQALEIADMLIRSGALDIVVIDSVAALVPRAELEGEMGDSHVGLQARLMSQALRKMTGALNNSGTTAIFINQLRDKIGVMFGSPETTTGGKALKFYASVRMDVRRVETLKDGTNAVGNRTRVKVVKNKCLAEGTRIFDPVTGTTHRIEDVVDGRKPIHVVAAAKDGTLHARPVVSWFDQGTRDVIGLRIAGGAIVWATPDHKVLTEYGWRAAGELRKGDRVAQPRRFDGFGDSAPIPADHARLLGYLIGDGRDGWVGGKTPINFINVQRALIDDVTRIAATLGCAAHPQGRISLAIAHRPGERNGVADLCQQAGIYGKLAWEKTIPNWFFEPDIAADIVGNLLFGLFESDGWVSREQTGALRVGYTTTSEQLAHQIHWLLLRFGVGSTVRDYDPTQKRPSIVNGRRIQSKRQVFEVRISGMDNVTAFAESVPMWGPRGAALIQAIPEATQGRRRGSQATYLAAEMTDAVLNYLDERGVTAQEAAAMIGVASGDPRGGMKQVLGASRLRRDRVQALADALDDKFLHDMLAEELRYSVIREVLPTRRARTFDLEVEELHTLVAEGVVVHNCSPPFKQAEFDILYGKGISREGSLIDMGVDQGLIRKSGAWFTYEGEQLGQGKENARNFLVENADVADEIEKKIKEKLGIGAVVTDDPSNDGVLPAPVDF
Mtb growth – M. tuberculosis H37Rv growth inhibitors, H37Rv strain (AID 1626) | M. tuberculosis H37Rv growth inhibition; higher % means a stronger effect | inhibition, % at 10 µM, or IC50 in µM where a hit was titrated | 220,000 tested, 0.95% active;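 active means confirmed in a dose series; inconclusive means inhibition above 80% but not taken into the dose series; inactive means below 80% or under 30% at every dose of the series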;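 further: bacteria incubated seven days before Alamar blue readout; 0% = bacteria only wells and 100% = bacteria with antibiotic wells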
YopH inh – YopH tyrosine phosphatase inhibitors, primary screen, biochemical, fluorescence Ex485/Em525; YopH tyrosine phosphatase [Yersinia enterocolitica]; inhibition, %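 (about 10 µM by stock and volumes)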; 140,000 tested, 0.16% active; AID 898, 2007;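 active means inhibition of 50% or more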;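 further: controls were vehicle for no effect and minimum signal wells for full effect; inactives centre near -20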
Arbovirus inh repeat – recorded beside Arbovirus inh, whose call it bears; inhibition, %; measured here: 10K subset replicate screen; many hits read low in the repeat;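 first of two repeat runs on a subset; 0% = infected and 100% = uninfected wells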
* marks the source's active call; other numbers are inactive results; ? = inconclusive; · = no result given. Only part of the results is shown; rates above refer to the full screens.

SMILES	Mtb betalactam	Arbovirus inh	RecA splice inh	Mtb growth	YopH inh	others
CC12C(=O)N(c3cccc(OC(=O)c4ccco4)c3)C(=O)C1C1c3ccccc3C2c2ccccc21 (stereo not given)	15	11	27	-8%	5
Cc1[nH]c2ccccc2c1C(=O)C(=O)N1CCOCC1	-5	·	0.2	·	·
COc1ccc(N(C(C)C(=O)N/N=C/c2ccc(OC(C)C)cc2)S(C)(=O)=O)cc1 (stereo not given)	1	14	5.0	-5%	-3
CCOc1ccccc1NC(=O)c1ccc2c(c1)C(=O)N(CC1CCCO1)C2=O (stereo not given)	?	·	0.4	·	·
Cc1ccn(CC(=O)N2CCCC(C(=O)c3cccc4ccccc34)C2)n1 (stereo not given)	-3	-1	-0.2	4%	·
O=C(N/N=C/c1ccc(O)c(O)c1)c1cccc(S(=O)(=O)N2CCCC2)c1	-9	·	-9.1	·	·
CC(C)Oc1ccc(C(CC(=O)O)NC(=O)C2CCCCC2)cc1 (stereo not given)	1	-3	-0.3	5%	-42
N#Cc1ccc(Cl)cc1NC(=O)CNCc1cccs1	1	·	-2.4	·	·
O=C(NC1CCCCC1)C1CC(=O)N(Cc2ccccc2)C1 (stereo not given)	-8	·	-0.6	·	·
COc1ccccc1NC(=S)N/N=C/c1ccc(O)cc1	1	-4	2.6	9%	-7
CC(=O)Nc1ccc(NC(=S)NC(=O)c2ccc(-c3ccccc3)cc2)cc1	-10	·	-0.9	·	·
CC(=O)N1CCc2ccc(C(=O)CN3CCN(c4cccc(C)c4C)CC3)cc21	·	-5	·	4%	6
Cc1cc(CNC(=O)COc2c(F)c(F)cc(F)c2F)c2ccccc2n1	0	0	-0.2	-6%	·
COCCN(CCOC)Cc1c(O)ccc2c1O/C(=C\c1ccc(C)o1)C2=O	3	·	-21	·	·
Cc1ccc2[nH]c(=O)c(CN(CCCO)S(=O)(=O)c3c(C)ccc4nsnc34)cc2c1	-2	10	-3.8	-7%	0
Cc1ccc(C(=O)N2CCN(c3ccc(N4CCOCC4)nn3)CC2)cc1	0	·	-2.8	·	·
CC1CCN(C(=O)c2ccccc2NS(=O)(=O)c2ccccc2)CC1	-14	·	-0.7	·	·
CC1=NN(C(=O)c2ccc(Cn3nc(C)c([N+](=O)[O-])c3C)cc2)C(O)(C(F)(F)F)C1 (stereo not given)	21	-14	1.7	1%	-7
Cn1c(SCC(=O)Nc2sc3c(c2C#N)CCC3)nnc1C1COc2ccccc2O1 (stereo not given)	4	-2	1.3	-4%	-31
COc1ccc(CNS(=O)(=O)c2ccc(-n3cccn3)cc2)cc1	-14	·	3.4	·	·
CCOC(=O)c1ccccc1NC(=O)c1c(N)n(C)c(=O)[nH]c1=O	-2	·	-3.0	-13%	·
COc1ccccc1-c1ccc(=O)n(CC(=O)NCc2ccc3c(c2)OCO3)n1	1	-3	-0.4	-2%	-48
CCc1cc2ccc(OC)cc2nc1SCC(=O)N1CCN(C(=O)c2ccco2)CC1	-3	·	6.8	4%	·
O=C(c1ccco1)N1CCN(CC(=O)N2CCCc3c2c(=O)oc2ccc(O)cc32)CC1	3	0	0.5	-19%	53*
N#C/C(=C\C1=C(N2CCOCC2)C(=C/c2cccc([N+](=O)[O-])c2)/CC1)C(=O)Nc1ccccc1F	49	-9	·	9%	-7
COc1cccc(N2CC(=O)N(NC(=O)c3sc4nc(C)cc(C)c4c3N)CC2=O)c1	-2	·	-13	-6%	·
Cc1nn(-c2ccccc2)c2[nH]c(=O)c(CNc3ccc4c(c3)OCCO4)cc12	67	-19	-6.0	2%	-30
O=C(NC(=S)N1CCCCCC1)c1ccccc1	90	·	-1.2	·	·
O=C(NCC1CCS(=O)(=O)C1)Oc1ccccc1 (stereo not given)	-8	2	-1.3	-10%	-16
CCOC(=O)N1CCN(C(=O)c2ccc(CNS(=O)(=O)c3ccc(C)cc3)cc2)CC1	-7	-9	-0.4	-4%	-53

Grouped by structure: the compounds so far with four or more nitrogen atoms (8)
SMILES	Mtb betalactam	Arbovirus inh	RecA splice inh	Mtb growth	YopH inh	others
Cc1ccc2[nH]c(=O)c(CN(CCCO)S(=O)(=O)c3c(C)ccc4nsnc34)cc2c1	-2	10	-3.8	-7%	0
Cc1ccc(C(=O)N2CCN(c3ccc(N4CCOCC4)nn3)CC2)cc1	0	·	-2.8	·	·
CC1=NN(C(=O)c2ccc(Cn3nc(C)c([N+](=O)[O-])c3C)cc2)C(O)(C(F)(F)F)C1 (stereo not given)	21	-14	1.7	1%	-7
Cn1c(SCC(=O)Nc2sc3c(c2C#N)CCC3)nnc1C1COc2ccccc2O1 (stereo not given)	4	-2	1.3	-4%	-31
CCOC(=O)c1ccccc1NC(=O)c1c(N)n(C)c(=O)[nH]c1=O	-2	·	-3.0	-13%	·
N#C/C(=C\C1=C(N2CCOCC2)C(=C/c2cccc([N+](=O)[O-])c2)/CC1)C(=O)Nc1ccccc1F	49	-9	·	9%	-7
COc1cccc(N2CC(=O)N(NC(=O)c3sc4nc(C)cc(C)c4c3N)CC2=O)c1	-2	·	-13	-6%	·
Cc1nn(-c2ccccc2)c2[nH]c(=O)c(CNc3ccc4c(c3)OCCO4)cc12	67	-19	-6.0	2%	-30

Other results:
SMILES	Mtb betalactam	Arbovirus inh	RecA splice inh	Mtb growth	YopH inh	others
CCN(CC)CCNC(=O)C1c2ccccc2C(=O)N(C)C1c1cn(C)c2ccccc12 (stereo not given)	1	1	-2.5	-3%	-20
CCCc1nnc(NC(=O)CCC(=O)N2CCN(Cc3ccc(Cl)cc3)CC2)s1	10	·	1.0	·	·
O=C(/C=C/c1ccnc2ccccc12)c1cccs1	1	-3	5.2	18µM*	·
O=C(Nc1ccc(F)c(F)c1)C1CCCN(S(=O)(=O)c2cnc[nH]2)C1 (stereo not given)	0	·	-2.1	·	·
Cc1ccccc1/C=C1\C(=O)Nc2ccc(F)cc21	-7	·	7.4	·	·
COc1cc(C(=O)Oc2ccccc2/C=N/NC(=O)c2ccc(Cl)cc2Cl)cc(OC)c1OC	26	-35	15	-15%	-11
COc1ccc(-c2csc(NC(=O)c3cc(C)oc3C)n2)cc1OC	90	·	3.2	·	·
Cc1cc(N)c(C)c([N+](=O)[O-])c1C	8	-3	-1.5	66%	-31
CCOc1ccccc1-n1c(SCC(=O)NC2CCCC2)nnc1-c1ccoc1C	5	-1	-1.5	7%	4
Cc1cccc(C)c1N1CCN(c2cc(Cl)nc(N)n2)CC1	13	·	-0.5	·	·
CS(=O)(=O)N(CCc1ccccc1)CC(=O)NCc1ccccn1	-8	3	1.8	0%	-33
CC(=O)c1ccc(N2C(=NC(=O)CCC3CCCC3)SC3CS(=O)(=O)CC32)cc1 (stereo not given)	-2	·	-1.5	·	·
N#CC(C(=O)c1ccc(S(=O)(=O)N2CCCCCC2)cc1)c1nc2ccccc2[nH]1 (stereo not given)	4	-1	-2.9	-2%	-52
CCn1c(SCC(=O)NCCc2ccccc2)nc2sc3c(c2c1=O)CCN(C)C3	-4	·	-7.1	-9%	·
O=C(OCn1nnc2ccccc2c1=O)c1ccc2ncsc2c1	100	4	-1.0	10%	15
CC1Sc2ccc(S(=O)(=O)N(C)Cc3ccccc3)cc2NC1=O (stereo not given)	-2	·	4.1	·	·
CN1C(C(=O)Nc2ccc(F)cc2F)=CC(c2cccs2)=NS1(=O)=O	6	·	2.0	·	·
O=C(NCCc1ccccc1Cl)C1CCC(=O)N(Cc2cccc(C(F)(F)F)c2)C1 (stereo not given)	-3	·	-0.1	·	·
Cc1ccc(-c2cc(C(=O)O)n[nH]2)s1	-3	1	2.4	-1%	·
Cc1cc(C)n(-c2nc3ccccc3c(=O)n2OCC(C)C)n1	?	·	-0.2	·	·
CCOc1ccc(N2C(=O)/C(=C/c3ccccc3OCC(=O)OC)N(CC(=O)OC)C2=S)cc1	-7	10	1.4	1%	·
CCCn1c(SCC(=O)NC2CC2)nnc1-c1ccccn1	4	·	-7.0	·	·
O=C(O)CCc1ccc(-c2ccccc2)n1Cc1ccco1	15	3	2.9	0%	1
Cn1nc(-c2ccc(Cl)cc2)cc1NC(=O)CCCC(=O)O	-3	·	1.6	-8%	·
CCNC(=S)NNC(=O)c1cc(-c2ccc(OCC)cc2)nc2ccccc12	52	-23	-3.5	6%	-13
COc1ccc(Cn2c(N)c(S(=O)(=O)c3cccs3)c3nc4ccccc4nc32)cc1	-3	-9	-4.0	-8%	-32
O=C(CCc1ccccc1)N1CCN(c2ccccn2)CC1	0	4	0.5	-8%	-18
COC(=O)c1sccc1NC(=O)Nc1ccccc1F	-6	-2	0.4	-3%	·
CCOCCCNc1nc(C)nc2c1nnn2Cc1c(F)cccc1Cl	-2	0	1.6	-2%	·
CC(=O)N1CCC(C(=O)Nc2ccccc2)(N(Cc2ccccc2)C(=O)c2cccnc2)CC1	-16	-5	-1.1	-1%	-19	Arbovirus inh repeat=2
COC(=O)c1c(NC(=O)C2=COCCO2)sc(C)c1C	-7	·	0.7	·	·
N#C/C(=C\c1cccs1)C(=O)NCC1CCCO1 (stereo not given)	-3	-3	-0.8	-2%	-4
O=C(COC(=O)CNC(=O)c1ccccc1)NCCc1ccccc1	-10	3	-0.6	-2%	·
Cc1ccc2c(Cl)cc(Cl)c(OCC(=O)Nc3cccc(S(N)(=O)=O)c3)c2n1	12	1	3.4	1%	-16
O=c1[nH]c(SCc2ccc(Cl)cc2)nc2[nH]ncc12	6	-21	-5.2	1%	·
Cc1nc2c3ccccc3nc(NNC(=O)CCC(=O)NC3CCCC3)n2n1	4	5	3.2	0%	·
C#CCOc1ccc(Br)cc1C(c1c(C)[nH][nH]c1=O)c1c(C)[nH][nH]c1=O	0	·	94*	·	·
CC(=O)c1ccc(OCC(=O)Nc2ccc3c(c2)CCC3)cc1	95	3	2.0	13µM*	·
O=C(Nc1cccc(S(=O)(=O)N2CCCC2)c1)C1CCCN1C(=O)c1cccs1 (stereo not given)	1	·	1.1	-2%	·
Cc1ccc2cc(CN(CCN(C)C)C(=O)Nc3ccc(Cl)cc3)c(=O)[nH]c2c1	9	-32	-1.6	1%	·
CC(C)CN(C(=O)COC(=O)CSc1ccc([N+](=O)[O-])cc1)C1CCS(=O)(=O)C1 (stereo not given)	-6	·	0.1	·	·
CN(CCOc1ccccc1)C(=O)c1cc(S(=O)(=O)N2CCOCC2)ccc1Cl	18	·	-2.8	·	·
N#C/C(=C/c1ccc(Sc2nc3ccccc3[nH]2)o1)c1cccc(F)c1	2	-17	-13	8%	13
O=c1c2ccccc2nc2n1CCS2	0	-3	-1.6	-9%	-33
Cn1c(C2CCCCC2)nc2ccccc21	-4	·	-3.5	·	·
COc1ccc(OC)c(CCNC(=O)C(=O)Nc2ccc3nc4n(c(=O)c3c2)CCCCC4)c1	6	·	-0.7	9%	·
CCOC(=O)CC1C(=O)NCCN1S(=O)(=O)c1ccccc1Cl (stereo not given)	-5	13	·	-12%	-51
O=C(C1CCC(=O)N1Cc1ccccc1Cl)N1CCC2(CC1)OCCO2 (stereo not given)	-7	12	-0.6	-2%	-18
CC(C)(C)c1ccccc1NC(=O)N1CCNC(=O)C1CC(=O)Nc1ccc(F)cc1 (stereo not given)	-11	·	-0.1	·	·
COc1ccccc1-n1cnnc1SCC(=O)Nc1cc(C(C)(C)C)nn1-c1ccccc1	-6	-2	-0.1	5%	-36
The list goes on:
SMILES	Mtb betalactam	Arbovirus inh	RecA splice inh	Mtb growth	YopH inh	others
C=C(C)CSCc1nc2ccccc2[nH]1	-4	5	1.2	-6%	-15
CCCCCN(C(=O)CCC(=O)OCc1cccc(C(F)(F)F)c1)c1c(N)n(CCCC)c(=O)[nH]c1=O	-15	·	-0.8	·	·
O=C(Nc1nccs1)c1cccc(NC(=O)c2ccco2)c1	-9	10	·	0%	-28
C/C(=N\OCc1ccccc1)c1c(O)cc(C(C)C)n(-c2ccccc2)c1=O	1	3	1.9	-1%	-17
COCCNC(=S)NN=C1CCCCC1	0	8	-3.6	-2%	·
CCSc1nnc(NC(=O)CSc2nnc(-c3c[nH]c4ccccc34)n2C)s1	-2	1	-3.6	8%	·
O=C1Nc2ccc(S(=O)(=O)N3CCCC3)c3cccc1c23	5	-4	-8.4	9%	6
Cc1cc(C(=O)NNC(=O)c2cccc(C(F)(F)F)c2)no1	-12	·	-0.2	-9%	·
CN1CCN(C(=O)COc2ccc(C(C)(C)C)cc2Br)CC1	-5	4	-6.3	-9%	-21
Cc1c2c(nc3nnnn13)CCCC2	-7	2	-4.3	3%	·
Cc1occc1-c1nnc(SCC(=O)NC2CC2)n1C(C)C	4	·	1.5	·	·
Cc1cccc(C(=O)Nc2ccc3c(c2)C(=O)N(CC(C)C)C3=O)c1	-2	4	-1.1	5%	·
O=C(NC(NCc1cccnc1)C(Cl)(Cl)Cl)c1cccc2ccccc12 (stereo not given)	1	-1	1.0	2%	-24
